# Ecoli growth: inhibitors of Escherichia coli growth. OD600, 23 h; active compounds read low. OD600 absorbance (test concentration not listed). 330,000 compounds, 0.21% hits. AID 1053175;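 active means OD600 absorbance below the run mean of sample wells minus 3.6 SD, in any replicate, cut at about 0.56 in these data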;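 further: stock transfer was 300 nL into about 60 µL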
# UCH37 DUB inh: inhibitors of human deubiquitinating enzyme UCH37; Q9Y5K5; AID 588478; purified proteasome/UCH37, Ub-AMC cleavage fluorescence; 330,000 compounds, 0.33% hits; inhibition, % (test concentration not listed);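 active means mean of two replicates above 20%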;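 further: 0% = compound-free wells with enzyme and 100% = wells lacking proteasome; stock transfer was 100 nL into about 20 µL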
# Target sequence (Q9Y5K5 whole entry, looked up): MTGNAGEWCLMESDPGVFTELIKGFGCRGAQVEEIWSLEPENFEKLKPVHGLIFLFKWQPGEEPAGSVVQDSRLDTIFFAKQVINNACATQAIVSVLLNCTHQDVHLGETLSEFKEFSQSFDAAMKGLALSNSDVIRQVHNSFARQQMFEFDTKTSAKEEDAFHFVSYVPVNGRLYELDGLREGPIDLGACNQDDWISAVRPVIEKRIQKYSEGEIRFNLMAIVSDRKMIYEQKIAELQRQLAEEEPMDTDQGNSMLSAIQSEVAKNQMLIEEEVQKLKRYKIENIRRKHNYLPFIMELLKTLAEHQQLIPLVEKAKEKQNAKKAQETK
#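 Reagent: Ub-AMC substrate; assay system: Proteasome-associated human UCH37 deubiquitinase; controls: no-proteasome and no-compound wells; read-out: % inhibition of Ub-AMC cleavage fluorescence; timing: 30 min preincubation with enzyme, 25 min cleavage at room temperature; signal: AMC fluorescence from Ub-AMC cleavage, excitation 355 nm, emission 460 nm; buffer or medium: Tris-HCl pH 7.4 plus ovalbumin, ATP-MgCl2, DTT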
# HNF4A DNA FP: change in binding of human HNF4 alpha to DNA; P41235; HNF4a-FITC DNA binding, fluorescence polarization, 1 h; activity change, % at 10 µM; 360,000 compounds, 0.3% hits; AID 1224865; in the data active means activity change above about 30%, passing the limit was not always enough;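 further: controls were the assay level and a saturating level of protein; the project sought stronger binding though the title names inhibitors; some compounds called inactive have numbers as strong as hits; positive values seem to mean higher polarization but the record does not say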
# LANA-H2B inh: blocks KSHV LANA binding to histone H2A/H2B. cell-free LANA-H2A/H2B peptide, fluorescence polarization. AID 2629. Q9QR71. inhibition, % (test concentration not listed). 320,000 compounds, 0.6% hits; in the data active means inhibition mostly above about 10%, no sharp cut-off; inactive means mostly below about 6.7%;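 further: stock transfer was 7.5 nL into about 10 µL; 0% = median of vehicle wells and 100% = median of positive control wells; one replicate is shown; the record names a cut of 25% in any replicate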
# A1 inh: inhibitors of the anti-apoptotic protein A1, read as caspase activation | caspase activation, % (concentration not given with the values) | AID 2462 | MEF A1-2A-BIM cells, Caspase-Glo 3/7 luminescence, 3 h; percent of clofoctol response, vehicle zero | 330,000 compounds, 0.066% hits;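 active means over half of replicate activation scores above 10%, or exactly half above 10 with the replicate mean above 10; inconclusive means replicate mean below 10 yet half the replicates above 10; inactive means over half of replicates below 10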;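 further: wells of about 30 µL received 50 nL stock; many hits fall short of the cut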
# Vif TR-FRET: inhibitors of Vif binding to APOBEC3G peptide, primary screen, biochemical, TR-FRET, GST-Vif 1-94, biotin-A3G peptide, dose response retest (AID 1117319); TR-FRET GST-Vif / biotin-A3G peptide binding; higher % means a stronger effect; test concentration not given here; strong numbers were not always called active; inhibition, %, or IC50 in µM where a hit was titrated; 260,000 compounds, 0.57% hits;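 active means above the screen mean plus three standard deviations and confirmed in dose response; inconclusive means results disagree or hit not tested in dose response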;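 further: Vif residues 1-94 fused to GST binding biotinylated APOBEC3G peptide 110-148; 0% = full assay without inhibitor and 100% = GST in place of GST-Vif; retest series ran down from 100 µM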
# B2AR ag: agonists of human beta-2 adrenergic receptor inducing internalization. P07550. Am2.2-beta2AR cells, FAP receptor internalization, flow cytometry; reference of the scale not given here. response, % (concentration not given with the values). 340,000 compounds, 0.43% hits;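 active means response above a set limit, near 3 SD of response in nonfluorescent compounds, cut at about 42% in these data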;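 further: stock transfer was 100 nL into about 11 µL; a reference agonist was the positive control; negative values mostly stem from fluorescent compounds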
# Target sequence (P07550 whole entry, looked up): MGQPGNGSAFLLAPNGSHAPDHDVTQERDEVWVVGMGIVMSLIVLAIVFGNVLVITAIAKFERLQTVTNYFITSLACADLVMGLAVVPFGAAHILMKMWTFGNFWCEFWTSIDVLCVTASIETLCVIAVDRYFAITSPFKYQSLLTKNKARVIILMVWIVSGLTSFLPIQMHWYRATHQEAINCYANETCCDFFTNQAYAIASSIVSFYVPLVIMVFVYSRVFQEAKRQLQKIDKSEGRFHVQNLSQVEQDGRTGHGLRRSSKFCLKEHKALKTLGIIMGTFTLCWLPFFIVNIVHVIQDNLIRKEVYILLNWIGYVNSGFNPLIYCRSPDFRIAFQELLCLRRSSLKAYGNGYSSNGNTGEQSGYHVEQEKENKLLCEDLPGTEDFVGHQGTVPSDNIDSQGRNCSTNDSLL
# Numbers without * were called inactive; i = inactive; u = inconclusive; x = not tested or not shown.
SMILES,Ecoli growth,UCH37 DUB inh,HNF4A DNA FP,LANA-H2B inh,A1 inh,Vif TR-FRET,B2AR ag
O=C1c2ccccc2NC(c2ccccn2)N1c1ccccc1F (stereo unspecified),0.71,i,-2.0,-1.5,-0.7,22%,0
CC(C)C(NC(=O)c1c(F)cccc1F)C(=O)NCCc1ccc(S(N)(=O)=O)cc1 (stereo unspecified),0.7,3.3,2.3,-1.5,0.1,x,6
COc1cccc(-c2nc(SCC(=O)Nc3nc(-c4ccccc4)c(C)s3)[nH]c(=O)c2C#N)c1,0.72,5.8,-0.4,6.8,-0.3,5%,4
CCN(CC)Cc1c(O)ccc2c(=O)c(-c3ccc4c(c3)OCCO4)coc12,0.71,-33,0.7,-0.2,0.1,4%,4
O=C(NCCCN1CCOCC1)c1ccc2c(c1)N(Cc1ccc(Cl)cc1)C(=O)c1ccccc1S2=O (stereo unspecified),0.7,5.5,0.4,0.2,-0.1,x,-1
CN(C)CCNC(=O)/C=C/c1cn(-c2ccccc2)nc1-c1cc2ccccc2oc1=O,0.7,-4.1,-1.0,-0.5,-0.4,4%,9
CCOc1ccc(Nc2nc(Cl)nc(NCCO)n2)cc1,0.66,2.1,0.7,0.1,-0.2,x,-5
CC12CCC(=O)C=C1CCC1C2CCC2(C)C(C(=O)CO)CC(O)C12 (stereo unspecified),0.66,0.3,-0.5,x,x,-2%,17
O=C(c1ccccc1NS(=O)(=O)c1cccc([N+](=O)[O-])c1)N1CCOCC1,0.74,-1.2,3.6,-1.8,0.2,-5%,-3
CCC1(CC)Cc2ccccc2C2=C(C(=O)N3CCCCC3)C(=O)C(=O)N21,0.69,9.5,-0.9,-1.3,0.5,-1%,1
CN(C)c1ccnc(C(=O)O)c1,0.73,2.1,1.3,0.4,-0.3,5%,-1
Cc1cc(C)cc(OCC(=O)Nc2ccc(N3CCOCC3)cc2N2CCOCC2)c1,0.64,1.7,-2.3,-3.9,-0.4,-5%,8
CCNc1ccc(Br)cc(C(=O)/C=C/c2c(Cl)cccc2Cl)c1=O,0.76,6.9,2.5,6.4,0.7,u,-83
Cn1nc(C(=O)OCC(=O)c2ccc(Br)cc2)c2ccccc2c1=O,0.7,1.9,4.1,-0.8,1.3,0%,-5
O=C(CCN1C(=O)c2ccccc2C1=O)Nc1cccc(O)c1,0.65,3.1,-2.0,5.4,2.0,11%,11
Oc1ccc(Oc2ccc(Oc3ccc(O)cc3)cc2)cc1,0.61,1.8,0.8,-0.8,1.5,x,-1
COc1ccccc1Nc1ccncc1[N+](=O)[O-],0.71,2.7,0.5,-5.2,0.5,2%,-2
CCOC(=O)c1cc2n(c1C)-c1ccccc1C2=O,0.71,4.0,2.7,0.7,-0.2,0%,-16
CCc1nnc(NS(=O)(=O)c2ccc(NC(=O)c3cccc(Br)c3)cc2)s1,0.63,5.3,-1.0,9.4,-1.8,x,1
Oc1ccc(Cl)cc1CNCc1ccc(C(F)(F)F)cc1,0.6,1.8,-1.6,-3.4,0.9,x,-4
COc1ccc(NC(=O)COc2nc3ccccc3nc2N2CCOCC2)c(OC)c1,0.67,-43,-0.1,2.4,0.3,-6%,3
CCCOc1cccc(C(=O)Nc2cccc3ncccc23)c1,0.68,-1.4,1.4,-1.7,-0.7,x,-10
COc1ccc(OC)c(NC(=O)CSc2nnc(CNC(=O)c3cc(OC)c(OC)c(OC)c3)o2)c1,0.64,2.9,4.8,-5.1,-0.2,x,6
COc1cccc(NC(=O)CSc2nc(C3CC3)nc3ccccc23)c1,0.63,5.0,0.6,0.8,0.3,-2%,-4
CCc1ccccc1N(CC(=O)N1CCN(c2ccccc2)CC1)S(C)(=O)=O,0.74,5.9,-1.1,-1.4,-0.6,9%,2
Cc1ccc(NC(=O)CN(C)C(=O)c2ccc(C(F)(F)F)cc2)cc1,0.71,-2.0,6.0,2.0,1.1,5%,16
Cc1noc(C)c1C(=O)Nc1cccc(S(=O)(=O)N2CCCCC2)c1,0.67,2.9,-0.1,8.8,2.3,-2%,-3
COc1ccc(CN2C(=NC(=O)C3CCCO3)SC3CS(=O)(=O)CC32)cc1OC (stereo unspecified),0.69,1.7,2.9,-8.9,2.7,x,5
O=C(OC1CCCC1)c1ccc(Cl)cc1Cl,0.69,2.0,-4.4,x,x,-6%,-1
CC(=O)Nc1ccc(OCC(=O)NCc2ccc3c(c2)OCO3)cc1,0.66,0.9,0.6,-6.4,0.2,2%,6
CC(=O)c1c(C)[nH]c(C(=O)OCC(=O)N2c3ccccc3NC(=O)C2(C)C)c1C,0.69,1.5,-1.2,6.0,-0.6,-4%,5
Cc1ccccc1OCCC(=O)OCC(=O)NC(C)c1ccccc1 (stereo unspecified),0.68,1.1,4.6,1.8,-0.8,19%,5
CCC(C)NC(=O)CN(c1cc(Cl)cc(Cl)c1)S(C)(=O)=O (stereo unspecified),0.64,0.0,1.6,2.3,-0.6,x,4
Cc1cc(C)c(C(=O)COC(=O)CNC(=O)c2ccccc2C)c(C)c1,0.65,0.0,-0.9,2.4,-0.3,-7%,3
Cc1ccc(C(=O)Nc2ccccc2N2CCN(C(=O)C(C)C)CC2)cc1C,0.71,1.6,4.7,6.5,-0.6,-3%,2
Cc1[nH]nc2c1C(C(C)C)C(C#N)=C(N)O2 (stereo unspecified),0.66,1.3,-0.2,0.6,-0.3,0%,-1
CCOc1ccc2nc(NC(=O)CN3CCN(CC)CC3)sc2c1,0.69,4.0,-1.9,3.3,-0.4,x,-3
Cc1ccccc1-c1n[nH]c(=S)n1/N=C/c1c(C)nn(-c2ccccc2)c1C,x,x,-4.0,4.6,0.0,x,-6
Cc1ccc(NC(=O)c2cc(S(=O)(=O)N3CCCC3)cn2C)cc1,0.72,5.2,2.0,0.8,0.9,x,22
O=[N+]([O-])c1cc(Cl)ccc1N1CCCC1,0.73,0.3,-0.8,-2.3,-0.9,x,0
CCOC(=O)C1=C(C)N(Cc2ccc(C(=O)O)cc2)C(=O)NC1c1ccc([N+](=O)[O-])cc1 (stereo unspecified),0.7,2.2,0.2,1.2,0.0,u,4
O=C(CN1CCC(O)(c2ccc(F)cc2)CC1)NCc1ccc(F)cc1,0.66,1.0,1.0,3.9,-0.1,13%,9
CCC(=O)NC(=S)Nc1ccc(NC(=O)c2cc3ccccc3o2)c(OC)c1,0.7,-13,0.6,-0.2,-0.6,2%,4
COc1cc(C(=O)NNC(=O)CNC(=O)c2ccc(Br)o2)cc(OC)c1OC,0.68,0.4,0.7,2.1,-0.9,x,-5
COc1cccc(CNC(=O)CCC2CCCN(C(=O)c3ccc(OC)o3)C2)c1 (stereo unspecified),0.67,2.2,-1.0,5.1,-3.4,6%,-1

# Limited to Ecoli growth, A1 inh and LANA-H2B inh, for some of the entries so far:
SMILES | Ecoli growth | A1 inh | LANA-H2B inh
Cc1[nH]nc2c1C(C(C)C)C(C#N)=C(N)O2 (stereo unspecified) | 0.66 | -0.3 | 0.6
COc1cc(C(=O)NNC(=O)CNC(=O)c2ccc(Br)o2)cc(OC)c1OC | 0.68 | -0.9 | 2.1

# The main list resumes with the two entries that preceded the break.
SMILES,Ecoli growth,UCH37 DUB inh,HNF4A DNA FP,LANA-H2B inh,A1 inh,Vif TR-FRET,B2AR ag
COc1cc(C(=O)NNC(=O)CNC(=O)c2ccc(Br)o2)cc(OC)c1OC,0.68,0.4,0.7,2.1,-0.9,x,-5
COc1cccc(CNC(=O)CCC2CCCN(C(=O)c3ccc(OC)o3)C2)c1 (stereo unspecified),0.67,2.2,-1.0,5.1,-3.4,6%,-1
CCCC(C)C(=O)Nc1ccc(F)c(Cl)c1 (stereo unspecified),0.69,1.6,3.3,1.4,-5.3,x,-2
O=C(NCc1ccccn1)c1cc(-c2ccc(Br)cc2)nc2ccccc12,0.73,-5.7,4.9,1.8,0.1,x,6
Nc1nc2n(n1)C(c1ccco1)CC(c1ccc(Cl)cc1)N2 (stereo unspecified),0.72,-0.1,3.4,5.3,-1.7,u,-6
CC(C)NC(=O)c1cc2c(C(F)(F)F)nn(C)c2s1,0.72,5.8,-0.6,1.1,0.0,u,5
CCN(CC)S(=O)(=O)c1ccc2c(c1)nc(SCC(=O)NC1CC1)n2-c1ccccc1OC,0.73,1.0,-2.1,-4.7,-0.3,0%,-15
COC(=O)c1cc(C(=O)N2CCN(c3cccc(Cl)c3)CC2)cc([N+](=O)[O-])c1,0.68,1.4,-4.3,2.8,0.7,9%,-1
COc1ccc(NC(=O)C(=O)NCCO)cc1Cl,0.64,3.3,-2.6,2.1,1.1,x,18
CC(C)(C)OC(=O)[C@H](Cc1ccccc1)NC(=O)c1nc[nH]c1C(=O)N1CCN(c2ccccc2)CC1,x,0.0,-5.7,2.9,0.6,x,6
O=C(Cn1cnc2ccccc2c1=O)c1c[nH]c2ccccc12,0.73,5.0,2.2,-0.5,0.3,-7%,6
COc1cc(OC)cc(-c2nnc(SCC(=O)N3CCCc4ccccc43)o2)c1,0.77,4.3,2.9,0.9,0.3,19%,5
CCCCCC(=O)Nc1nc(C)c(-c2csc(Nc3cc(Cl)ccc3OC)n2)s1,0.71,-3.5,7.4,-0.1,-0.2,0%,21
O=C(NCc1ccco1)c1ccccc1F,0.71,4.9,1.9,2.0,0.2,21%,-2
COc1ccc2nc(SCCC(=O)O)cc(C)c2c1,0.69,-5.3,1.7,2.0,-0.3,0%,2
COc1ccc(N=C(C)C2=C(O)CSC2=O)cc1,0.61,6.3,0.3,2.9,-3.1,20%,-11
CC(C)CCN(Cc1ccco1)S(=O)(=O)c1ccc(-c2ccc(=O)[nH]n2)s1,0.68,0.7,-0.5,-0.1,-1.9,x,5
C[C@H]1CN([C@@H](C)CO)C(=O)c2cc(NC(=O)NC3CCCCC3)ccc2O[C@H]1CN(C)C(=O)Nc1ccc(C(F)(F)F)cc1,x,4.7,0.6,-0.5,0.3,x,2
O=C(Cn1cncn1)N/N=C/c1cccc(Cl)c1,x,x,-4.1,-0.4,-0.4,-7%,-8
N#C/C(=C\c1ccccc1)C(=O)OCC(=O)N1CCCC1,0.7,0.7,-3.2,12,0.2,-3%,2
O=C(NCc1ccc(F)cc1)c1cc(-c2ccco2)on1,0.73,1.7,-2.3,-2.0,-0.2,18%,-3
O=C(N=C1SC2CS(=O)(=O)CC2N1c1ccc(F)cc1F)C1CC1 (stereo unspecified),0.66,1.2,2.7,4.9,u,-5%,-1
O=C(O)c1cccc(N/N=C/c2cccc3ccccc23)c1,x,x,0.7,-2.4,-6.7,x,10
CC(=O)c1ccc(NC(=S)NC(=O)c2c(Cl)c(C)nn2C)cc1,0.71,-17,0.1,-0.3,0.6,-6%,2
O=C1CSC(=Nc2ccc(Cl)cc2)N1Cc1ccco1,0.68,4.4,-3.4,-3.1,-0.3,x,-1
COC(=O)C(C)(C)ONC(=O)Nc1ccccc1Br,0.68,-1.0,1.1,2.2,1.0,23%,-1
O=C(NCCCSc1ccccc1)c1cc(Br)ccc1O,0.57,-16,3.0,0.1,-0.3,-13%,11
N/C(Cc1ccc([N+](=O)[O-])cc1)=N\OC(=O)Cc1ccccc1,x,x,8.4,-2.3,0.0,x,3
COc1cccc(C2C(C#N)=C(N)SC(c3ccccc3)C2[N+](=O)[O-])c1 (stereo unspecified),0.69,-1.5,-1.1,-6.8,-0.4,x,10
Cc1nc(NC(=O)c2ccco2)sc1C(=O)O,0.62,4.1,-0.9,5.8,-7.4,-4%,5

# Source: PubChem
